Source: PubChem BioAssay
StopGo FLuc – lowers the firefly signal of an FMDV 2A StopGo reporter | AID 1745856 | HEK cells with a luciferase reporter of 2A StopGo recoding | hit rate 0.23% among 120,000 | Potency, µM (series often up to 57.5 µM), without a hit: at the highest dose signal change, negative = less light; active = well fitted falling curve with a large enough effect; inconclusive = small, poorly fitted or top-dose-only effect; inactive = no such curve, though single readings can be large or run the other way; further: nearly all actives have a fitted effect of over 60% in size; overnight with compound
StopGo RLuc – FMDV 2A StopGo reporter, Renilla signal. HEK cells with a luciferase reporter of 2A StopGo recoding. Potency, µM (top dose mostly 57.5 µM), inactives show at the top dose signal change, negative = less light. hit rate 0.32% among 120,000. AID 1745857; active means well fitted falling curve with a large enough effect; inconclusive means small, poorly fitted or top-dose-only effect; inactive means no such curve, though single readings can be large or run the other way; further: nearly all actives have a fitted effect of over 55% in size; overnight with compound
* marks the source's active call; other numbers are inactive results; & = joins results of further samples; [ ] = another dose, or the depositor's remark. On the % scale 0 is the no-effect control and ±100 the full control effect; potency means the concentration at half of the fitted maximal effect.

`CCCNC(=O)c1ccc(Cl)cc1-n1cnnn1` gave StopGo FLuc -12% and StopGo RLuc -8%.
CCc1cc(Nc2ccccc2OC)n2ncnc2n1 was read as StopGo FLuc 5% and StopGo RLuc 9%.
For Cc1ccc(N2CCN(C(=O)c3nn(C)c4c3CCc3sccc3-4)CC2)c(C)c1 the results were StopGo FLuc 18% and StopGo RLuc 0%.
Cc1ccc(NC(=O)Cn2ncn3c(cc4ccccc43)c2=O)cc1C was read as StopGo FLuc 73%[activator] and StopGo RLuc 79%[activator].
For CCOc1ccccc1/C=C1/Cc2c(O)cccc2C1=O the results were StopGo FLuc 0% and StopGo RLuc -1%.
`CC(C)NC(=O)c1ccc(CSCc2ccccc2Cl)o1` gave StopGo FLuc inconclusive and StopGo RLuc inconclusive.
Cc1ccc2[nH]c3c(=O)n(CC(=O)N(C)Cc4ccccc4)ncc3c2c1 was read as StopGo FLuc -10% and StopGo RLuc 17%.
COc1ccc(-c2nc3cc(NC(=O)c4cccc(Br)c4)ccc3o2)cc1 was read as StopGo FLuc 0% and StopGo RLuc 2%.
O=C(CC1N=C2c3ccccc3N=C(SCc3cccc(Cl)c3)N2C1=O)NCc1ccc2c(c1)OCO2 (stereo not drawn) was read as StopGo FLuc 3% and StopGo RLuc 16%.
`O=C(CN1C(=O)COc2ccc(S(=O)(=O)N3CCOCC3)cc21)N1CCN(c2ccccc2)CC1` gave StopGo FLuc -11% and StopGo RLuc -7%.
Screening CCOc1ccc(OCC)c(NC(=O)C2CCCN(S(=O)(=O)c3cc(Br)cc4c3N(C(=O)CC)CC4)C2)c1 (stereo not drawn) returned StopGo FLuc 0% and StopGo RLuc 40%[activator].
For Cn1c(CC(=O)Nc2ccccc2F)nnc1SCC(=O)Nc1ccc2ccccc2c1 the results were StopGo FLuc 83%[activator] and StopGo RLuc 1%.
Screening CSc1ccc(CCNC(=O)CCc2c(C)nc3c(-c4ccccc4)c(C)nn3c2C)cc1 returned StopGo FLuc -19% and StopGo RLuc -5%.
For CC(C)[C@@H](CO)N(Cc1cn(Cc2ccccc2)nn1)S(=O)(=O)c1ccccc1Br the results were StopGo FLuc 0% and StopGo RLuc 84%[activator].
For CCc1cc(CC)n(-c2nc3c(c(=O)n(C)c(=O)n3C)n2C)n1 the results were StopGo FLuc 9% and StopGo RLuc 2%.
For Cc1ccc(C23CC4CC(CC(C(=O)Nc5ccc(F)cc5F)(C4)C2)C3)cc1 the results were StopGo FLuc -1% and StopGo RLuc 0%.
`Clc1ccc(-c2nnc(COc3nncc4ccccc34)o2)cc1` gave StopGo FLuc 92%[activator] and StopGo RLuc -3%.
For CCN(C(=O)CSc1nnc(N2CCOCC2)n1-c1ccccc1)C1=CCCC1 the results were StopGo FLuc -13% and StopGo RLuc -13%.
For Cc1nc(C2(NC(=O)CCn3c(=O)n(C)c4ccccc43)CCCCC2)no1 the results were StopGo FLuc 5% and StopGo RLuc -1%.
O=C(/C=C/c1c(Cl)cccc1Cl)c1cccc(O)c1 was read as StopGo FLuc 53%[activator] and StopGo RLuc 97%[activator].
`COc1cccc(OCCSc2nc3ccccc3n2CC(=O)N2CCCCC2)c1` gave StopGo FLuc -4% and StopGo RLuc 18%.
`COc1ccc(C(=O)Nc2ccc(C(=O)OCc3cc(=O)n4nc(C5CC5)sc4n3)cc2)cc1` gave StopGo FLuc -4% and StopGo RLuc 6%.
For O=C1NC2(CCCCC2)N(C(=O)c2ccccc2Br)C2=C1CCCC2 the results were StopGo FLuc -1% and StopGo RLuc 0%.
For O=S(=O)(/N=c1\ssc(-c2ccccc2)c1Cl)c1ccccc1 the results were StopGo FLuc 182%[activator] and StopGo RLuc 60%[activator].
`Cc1cc(C(=O)COc2ccc3ccc(=O)oc3c2)c(C)n1CC(F)(F)F` gave StopGo FLuc 9% and StopGo RLuc 28%.
COc1ccc(OCC(=O)Oc2ccc3c(C)cc(=O)oc3c2)cc1 was read as StopGo FLuc -4% and StopGo RLuc -5%.
`Cc1ccc(SC(C)C(=O)Nc2ccc(F)cc2F)cc1` (stereo not drawn) gave StopGo FLuc 4% and StopGo RLuc 12%.
O=C(Nc1nc2cc3c(cc2s1)OCCCO3)c1ccc(Br)cc1F was read as StopGo FLuc 38%[activator] and StopGo RLuc inconclusive.
O=C(Nc1ccc(O)c(-c2nc3ccccc3o2)c1)c1sc2ccccc2c1Cl was read as StopGo FLuc -11% and StopGo RLuc -17%.
For COc1ccc(OC)c(S(=O)(=O)NCCS(=O)(=O)N2CCN(c3ccccc3)CC2)c1 the results were StopGo FLuc 11% and StopGo RLuc 169%[activator].
`Cc1[nH]c(C)c(Cl)c(=O)c1Cl` gave StopGo FLuc -15%[27 µM] and StopGo RLuc -8%[23.8 µM].
For CC(=O)N1c2ccccc2NC2=C(C(=O)CCC2)C1c1ccccc1 (stereo not drawn) the results were StopGo FLuc 28% and StopGo RLuc 28%.
For Fc1ccc(N2CCN(c3ncnc4[nH]ncc34)CC2)cc1 the results were StopGo FLuc -16% and StopGo RLuc -17%.
CCOc1ccc2ccccc2c1C=O was read as StopGo FLuc 18% and StopGo RLuc -4%.
`CCC1CCCCN1C(=O)Cn1nc(-c2ccc(C)cc2)c2ccccc2c1=O` (stereo not drawn) gave StopGo FLuc 0% and StopGo RLuc -2%.
`O=C(NC1CCC(C(F)(F)F)CC1)c1ccc(Cl)nc1` (stereo not drawn) gave StopGo FLuc 0% and StopGo RLuc -1%.
Screening COc1ccc(-c2cn3c(n2)sc2cc(C(=O)Nc4ccc(C)c(C)c4)ccc23)cc1 returned StopGo FLuc 80%[activator] and StopGo RLuc 9%.
`Cc1cc(=O)oc2cc3occ(-c4ccc(-c5ccccc5)cc4)c3cc12` gave StopGo FLuc 18% and StopGo RLuc 2%.
`O=C(O)C(c1c[nH]c2cc(F)ccc12)N1CCN(CCNc2cc(=O)oc3ccccc23)CC1` (stereo not drawn) gave StopGo FLuc -3% and StopGo RLuc -10%.
Screening CCc1ccc(CNC(=O)C2CCCN(c3nn4cc(-c5ccc(F)cc5)nc4s3)C2)cc1 (stereo not drawn) returned StopGo FLuc inconclusive and StopGo RLuc -16%.
Screening O=C(Nc1ccc(Cl)cc1)N1CCN(CCc2ccncc2)CC1 returned StopGo FLuc 5% and StopGo RLuc 10%.
`COC(=O)c1ccc(CNC(=O)c2nccnc2N)cc1` gave StopGo FLuc -12% and StopGo RLuc inconclusive.
Screening Cc1ccc(Cl)cc1-n1c(=O)c2sc3ccccc3c2n(CC(=O)NC2CCCCC2)c1=O returned StopGo FLuc -3% and StopGo RLuc 7%.
For CNC(=O)c1c(NC(=O)c2ccc(S(=O)(=O)N3CCCCC3C)cc2)sc2c1CCC2 (stereo not drawn) the results were StopGo FLuc -11% and StopGo RLuc 25%.
COC(=O)COc1ccc2c(=O)c(-c3ccc(OC)c(OC)c3)c(C(F)(F)F)oc2c1 was read as StopGo FLuc 9% and StopGo RLuc -3%.
COC(=O)[C@]12C[C@H](CC(=O)N3CCSCC3)C(=O)N(CCC3=CCCCC3)C1=C[C@H](C(C)C)O[C@@H]2C1CC1 was read as StopGo FLuc 8% and StopGo RLuc 91%[activator].
For CCc1nn(CC(=O)N2CCN(c3cccc(C)c3C)CC2)c(=O)c2cc3occc3n12 the results were StopGo FLuc 21% and StopGo RLuc 0%.
CCCc1nn2c(=O)cc(COC(=O)c3ccc(NC(=O)C4CCCCC4)cc3)nc2s1 was read as StopGo FLuc -14% and StopGo RLuc -7%.
`CCOc1ccc(-c2cc(C(=O)NCCc3cccs3)[nH]n2)cc1` gave StopGo FLuc 40%[activator] and StopGo RLuc 3%.
CCC(=O)Nc1ccc(Cl)c(-c2nc3cc(C)ccc3o2)c1 was read as StopGo FLuc 75%[activator] and StopGo RLuc 4%.
Cc1c(C(=O)N(C)c2ccccc2)nnn1-c1cccc(Cl)c1 was read as StopGo FLuc 10% and StopGo RLuc 1%.
Cc1c(NC(=O)c2ccc([N+](=O)[O-])cc2)cccc1-c1nc2ccccc2o1 was read as StopGo FLuc 1% and StopGo RLuc -7%.
Cc1ccc(S(=O)(=O)NC2CCN(S(C)(=O)=O)CC2)c(Br)c1 was read as StopGo FLuc 0% and StopGo RLuc 24%.
Screening COc1ccccc1N1CCN(C(=O)CN2C(=O)COc3ccc(S(=O)(=O)N4CCCCCC4)cc32)CC1 returned StopGo FLuc 4% and StopGo RLuc 5%.
Screening COc1ccccc1Cc1nc2ccccc2nc1SCC(=O)Nc1c(C)cccc1C returned StopGo FLuc -17% and StopGo RLuc -10%.
Screening CC(C)NC(=O)CCCC(=O)NCC1(c2ccccc2)CC1 returned StopGo FLuc 1% and StopGo RLuc 11%.
Screening CCCNc1nc(-c2ccc(S(=O)(=O)N3CCCCCC3)cc2)cs1 returned StopGo FLuc 3% and StopGo RLuc 48%[activator].
For CCOC(=O)c1c(C)n(-c2ccccc2)c2ccc(OC(=O)COc3ccc(Cl)cc3)cc12 the results were StopGo FLuc -15% and StopGo RLuc 4%.
For Cc1ccc(S(=O)(=O)N2CCC3(CC2)NC(=O)c2ccccc2N3)cc1C the results were StopGo FLuc 0% and StopGo RLuc 2%.
For C=CCOc1cccc(NC(=O)c2ccccc2Cl)c1 the results were StopGo FLuc 0% and StopGo RLuc 24%.
`O=C(CSc1ncnc2ccccc12)Nc1cc(Cl)ccc1Cl` gave StopGo FLuc -4% and StopGo RLuc -5%.
CC(C)(C)c1ccc(C(=O)N/N=C/c2ccc3ccccc3c2)cc1 was read as StopGo FLuc 3% and StopGo RLuc -7%.
`Cc1ccc(C)c(NC(=O)CSc2ncc3c(n2)-c2cc(Cl)ccc2N(Cc2ccccc2F)S3(=O)=O)c1` gave StopGo FLuc -6% and StopGo RLuc -7%.
Screening Cc1nn(C)cc1CN(C)C(=O)CCn1nc(C(F)(F)F)c(Br)c1C returned StopGo FLuc 11% and StopGo RLuc -2%.
Screening Nc1cc(S(=O)(=O)O)cc2cccc(S(=O)(=O)O)c12 returned StopGo FLuc 0% and StopGo RLuc -6%.
Screening CCOC(=O)CN(Cc1ccccc1)C(C(=O)NC1CCCCC1)c1ccccc1 (stereo not drawn) returned StopGo FLuc -12% and StopGo RLuc -2%.
For COc1ccc2oc(-c3ccc(NC(=O)CC(C)C)cc3)nc2c1 the results were StopGo FLuc 145%[activator] and StopGo RLuc -10%.
For Nc1nnc(SCC(=O)Nc2ccccc2C(F)(F)F)s1 the results were StopGo FLuc -17% and StopGo RLuc -11%.
For O=C(O)c1ccc(N2CCOCC2)cc1 the results were StopGo FLuc 11% and StopGo RLuc 6%.
Screening COc1ccc(-n2nnc(C(=O)OCc3ccc(C)cc3C)c2C)cc1 returned StopGo FLuc 16% and StopGo RLuc 0%.
Screening Cn1c(SCc2ccc(Br)cc2F)nnc1-c1cnccn1 returned StopGo FLuc 0% and StopGo RLuc 9%.
`CCOc1ccc(CNC(=O)c2ccc3nc(Cc4ccccc4F)oc3c2)cc1OC` gave StopGo FLuc 27% and StopGo RLuc 15%.
For COc1cccc(NC(=O)c2oc3ccc(S(=O)(=O)N4CCOCC4)cc3c2C)c1 the results were StopGo FLuc -14% and StopGo RLuc -30%.
`COc1ccc(NC(=O)Cn2c(C)c3cnn(-c4ccccc4)c(=O)c3c2C)c(OC)c1` gave StopGo FLuc -6% and StopGo RLuc -3%.
`COc1ccc(CNC(=O)c2cc3c(=O)[nH]c4ccc(C)cc4c3s2)c(OC)c1` gave StopGo FLuc 1% and StopGo RLuc 16%.
`COc1ccc(CCNC(=O)CN(c2cc(C(F)(F)F)ccc2Cl)S(C)(=O)=O)cc1` gave StopGo FLuc -8% and StopGo RLuc 62%[activator].
Screening CCCCc1ccc(NC(=S)NN2CCN(C)CC2)cc1 returned StopGo FLuc 0% and StopGo RLuc 35%[activator].
COC(=O)c1ccc(NC(=O)CCc2c(C)nn(-c3ccc(N4CCOCC4)nn3)c2C)cc1 was read as StopGo FLuc 100%&37%[activator] and StopGo RLuc 8%&-8%.
`CCc1ccc(C(=O)COC(=O)/C=C/C(=O)OCC(=O)c2ccc(CC)cc2)cc1` gave StopGo FLuc -1% and StopGo RLuc -5%.
Cc1ccc(C(=O)Cn2c(=O)n(CCc3ccccc3)c(=O)c3sccc32)cc1 was read as StopGo FLuc 70%[activator] and StopGo RLuc 26%.
`COCCN(Cc1cccs1)C(=O)C1CC1` gave StopGo FLuc 1% and StopGo RLuc -3%.
